GALR2 agonist – agonists of human galanin receptor 2 (GALR2). O43603. GALR2-expressing cells, agonist activation read-out. activation, %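 (tested at 5 µM)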. actives 0.48% (n = 140,000);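 active means above mean plus 3 SD of all compounds, about 5% in these data, not always enough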;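 further: 0% = vehicle buffer wells and 100% = reference agonist at full effect; tested in CHO reporter cells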
Target sequence (O43603 whole entry, looked up): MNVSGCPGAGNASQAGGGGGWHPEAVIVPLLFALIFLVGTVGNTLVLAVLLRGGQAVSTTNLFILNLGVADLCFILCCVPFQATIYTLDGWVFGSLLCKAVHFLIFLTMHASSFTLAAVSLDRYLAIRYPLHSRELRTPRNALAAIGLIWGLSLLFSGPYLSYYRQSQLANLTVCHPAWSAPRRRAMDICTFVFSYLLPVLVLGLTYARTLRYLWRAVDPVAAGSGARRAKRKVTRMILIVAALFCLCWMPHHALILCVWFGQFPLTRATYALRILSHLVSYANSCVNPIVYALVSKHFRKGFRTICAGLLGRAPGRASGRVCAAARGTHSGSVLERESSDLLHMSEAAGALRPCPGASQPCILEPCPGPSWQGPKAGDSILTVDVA
HSV augment – increases HSV replication in cells; HSV replication augmentation in cells, fold increase; maximum fold increase; actives 0.005% (n = 220,000);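 active means peak rise of 1.5-fold or more in the series; tested in PC3 cells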;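 further: first round at 10 µM; read as green reporter fluorescence; hits show the peak of a series up to 25 µM; 1 = signal of infected wells without compound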
Insulin prom inh – TRM-6 insulin promoter activity inhibition. TRM-6 cells (human fetal islet line), insulin promoter-eGFP reporter, imaging; reporter expression induced with tamoxifen. actives 0.9% (n = 130,000). inhibition, % at 2 µM;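 active means inhibition above the mean plus 3 SD, with well images judged a real hit on visual review, cut at about 60% in these data, passing the limit was not always enough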
RGS16-Gao HTS – regulators of human RGS16-Galphao interaction; O15492+P09471; bead-based flow cytometry RGS16-Galphao binding, fluorescence; actives lie on both sides; binding response (% of control), % at 10 µM; actives 0.38% (n = 220,000); AID 1441;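 active means below 25% or above 175%, edge rows of some plates excepted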;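 further: Galphao activated by GDP with aluminum fluoride before binding; 100% = wells without compound and 0% = beads without RGS; some results beyond the cut were filed as inactive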
Target sequence (O15492 whole entry, looked up): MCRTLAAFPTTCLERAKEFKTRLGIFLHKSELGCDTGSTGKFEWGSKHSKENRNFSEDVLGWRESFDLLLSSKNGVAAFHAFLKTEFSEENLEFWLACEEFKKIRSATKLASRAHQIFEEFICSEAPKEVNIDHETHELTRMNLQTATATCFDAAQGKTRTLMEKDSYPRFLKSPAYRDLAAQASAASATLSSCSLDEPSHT
Target sequence (P09471 whole entry, looked up): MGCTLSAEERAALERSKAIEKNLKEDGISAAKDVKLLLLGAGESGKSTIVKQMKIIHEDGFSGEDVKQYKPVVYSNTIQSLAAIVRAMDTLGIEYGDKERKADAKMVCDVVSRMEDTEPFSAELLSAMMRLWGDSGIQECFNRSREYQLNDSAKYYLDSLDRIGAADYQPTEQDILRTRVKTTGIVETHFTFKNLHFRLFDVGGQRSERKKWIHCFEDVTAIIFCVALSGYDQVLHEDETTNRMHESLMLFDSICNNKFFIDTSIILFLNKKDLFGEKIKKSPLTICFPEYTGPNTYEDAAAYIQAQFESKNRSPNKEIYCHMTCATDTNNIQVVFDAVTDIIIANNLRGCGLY
PKD1 kinase inh – inhibitors of human PKD1 kinase; inhibition, %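 (about 10 µM by stock and volumes)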; actives 0.056% (n = 200,000); PKD1 kinase fluorescence polarization assay; Q15139;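 active means inhibition of 50% or more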;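 further: controls were vehicle for no effect and a reference inhibitor for full effect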
Insulin prom inh cell count – second read-out of Insulin prom inh, no call of its own (marks repeat the call); normalized cell count, %; measured here: cell count, toxicity; reference of the scale not given here;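 cells exposed to compound for 48 h; stained nuclei by imaging scaled within each plate; lower means fewer cells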
HSV augment primary fold – further read-out of HSV augment, marked with its call; fold increase; compound at 10 µM; measured here: primary screen fold increase 10 uM; tested in PC3 cells;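 GFP signal in the first replicate; 1 = infected wells without compound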
Starred values were filed as active, the others as inactive; i = inactive; x = no result given.

SMILES | GALR2 agonist | HSV augment | HSV augment primary fold | Insulin prom inh | Insulin prom inh cell count | RGS16-Gao HTS | PKD1 kinase inh
COc1cc(C(=O)Oc2ccccc2)ccc1OCc1c(C)noc1C | -1.9 | i | 1 | x | x | 101 | -1
COc1ccc(-c2nc(C#N)c(N3CCC(C(N)=O)CC3)o2)cc1OC | -1.2 | i | 0.78 | 75* | 96* | 96 | 0
Cc1cc(=O)oc2cc(OCC(=O)NCCCN3CCOCC3)ccc12 | -0.4 | i | 0.91 | -10 | 89 | 108 | 1
COc1ccc(S(=O)(=O)N2CCC(C(=O)Nc3cccc(C(C)=O)c3)CC2)cc1 | -1.6 | i | 0.91 | -28 | 123 | 104 | 6
CSc1ccc(C(=O)C2CCCN(C(=O)c3ccc4c(c3)no[n+]4[O-])C2)cc1 (centres undefined) | x | i | 0.81 | x | x | 104 | x
N[C@@H](Cc1ccc(O)c(I)c1)C(=O)O | -0.8 | x | x | 32 | 126 | 104 | -1
Cc1ccccc1C(OCCN(C(C)C)C(C)C)c1ccccc1 (centres undefined) | -1.6 | i | 0.8 | -38 | 156 | 104 | -8
O=C(CC1SC(=NCC2CCCO2)NC1=O)Nc1cc([N+](=O)[O-])ccc1Cl (centres undefined) | x | i | 0.97 | x | x | 95 | -7
Cc1cc(Nc2c(C#N)c(N)nn2C)ccc1F | x | i | 0.99 | x | x | 94 | -2
O=C(NCc1ccco1)c1noc2c1CCCC2 | -1.7 | i | 0.87 | x | x | 64 | -3
CC(=O)N1CCc2cc(S(=O)(=O)CCC(=O)NCc3cccs3)ccc21 | -3.5 | x | x | -6 | 84 | 112 | -19
Cc1ccc(C(=O)Oc2ccc(-c3nccc(-c4ccccn4)n3)cc2)cc1 | 0.7 | i | 0.95 | 2 | 134 | 122 | -3
CC(C)(C)NC(=O)c1nn(Cc2ccccc2)c(=O)c2ccccc12 | x | i | 0.87 | x | x | 98 | -2
N#C/C(=C/c1cccc(C(F)(F)F)c1)c1nc(CCN2C(=O)c3ccccc3C2=O)cs1 | -3.3 | i | 0.89 | -219 | 140 | 88 | -1
CN(C)/C=C(/C(=O)c1ccc(Cl)c(Cl)c1)c1nnnn1-c1ccccc1 | x | i | 1.2 | x | x | 104 | x
N=C1C(c2ccccc2)=C(O)CN1c1ccc2c(c1)OCO2 | -2.1 | i | 1.1 | x | x | 102 | -4
O=C(OCc1ccco1)c1cccnc1 | x | i | 0.88 | -64 | 138 | 105 | -5
CCCc1cc(=O)c2c(O)ccc(OC)c2o1 | x | i | 1.1 | x | x | 94 | x
CN(CC(=O)O/N=C(\N)c1cccc([N+](=O)[O-])c1)S(=O)(=O)c1ccccc1 | -2.0 | i | 0.9 | -18 | 150 | 101 | -12
COc1ccc(C(=O)ON=C2C=C(C)C(=O)C(C)=C2)cc1 | x | i | 1.2 | 6 | 91 | 102 | -3

Part of the list above in order of formula weight, ascending.
SMILES | GALR2 agonist | HSV augment | HSV augment primary fold | Insulin prom inh | Insulin prom inh cell count | RGS16-Gao HTS | PKD1 kinase inh
O=C(OCc1ccco1)c1cccnc1 | x | i | 0.88 | -64 | 138 | 105 | -5
Cc1cc(Nc2c(C#N)c(N)nn2C)ccc1F | x | i | 0.99 | x | x | 94 | -2
COc1ccc(S(=O)(=O)N2CCC(C(=O)Nc3cccc(C(C)=O)c3)CC2)cc1 | -1.6 | i | 0.91 | -28 | 123 | 104 | 6

Carrying on.
SMILES | GALR2 agonist | HSV augment | HSV augment primary fold | Insulin prom inh | Insulin prom inh cell count | RGS16-Gao HTS | PKD1 kinase inh
CCCCOCP(=O)(CCCC)COCCCC | 1.1 | i | 0.93 | -54 | 150 | -1 | -2
CCc1cc(OCCCSc2nc(C)cc(=O)[nH]2)ccc1Cl | -0.8 | i | 1 | -9 | 114 | 98 | 8
O=C(CN1C(=O)c2ccccc2S1(=O)=O)NCCSC1CCCCC1 | -1.3 | i | 0.78 | 23 | 78 | 46 | -9
COCCn1c(N)c(C(=O)OCc2ccccc2)c2nc3ccccc3nc21 | 3.0 | i | 0.78 | 36 | 128 | 99 | -1
COc1ccc(NC(=O)CC(c2ccc(F)cc2)c2ccc(OC(C)C)cc2)cc1 (centres undefined) | -1.0 | i | 0.91 | -11 | 144 | 102 | -3
O=C(CCCOc1ccc(Cl)cc1)Nc1ccc(N2CCOCC2)cc1 | x | i | 0.96 | x | x | 103 | -4
CCN(CC)C(=O)CCCc1c[nH]c2ccccc12 | x | i | 1 | x | x | 107 | 0
Cn1c(=O)c2c(nc(OCc3ccc4c(c3)OCO4)n2Cc2ccccc2Cl)n(C)c1=O | -1.3 | i | 0.92 | -39 | 86 | 99 | -9
Cc1ccc(N2CC(C(=O)NCc3cccs3)CC2=O)cc1 (centres undefined) | -1.7 | i | 0.74 | x | x | 114 | -2
OCC(CO)(CO)N=Cc1cc(Br)ccc1O | -0.9 | i | 0.99 | x | x | 99 | -6
COc1ccc(-n2nc3cc(C)c(NC(=S)NC(=O)c4ccccc4C)cc3n2)cc1 | -1.2 | i | 0.82 | x | x | 104 | -5
CCn1c(SCC(=O)n2nc(C)cc2C)nnc1-c1ccc2c(c1)OCO2 | -1.4 | i | 0.65 | x | x | 101 | -8
Oc1oc(-c2ccccc2)nc1/C=N/c1ccccn1 | x | i | 0.87 | 38 | 150 | 108 | -2
Cc1ccc(S(=O)(=O)N2CCN(c3ccc(S(=O)(=O)N4CCOCC4)cn3)CC2)cc1 | -3.2 | i | 0.97 | 0 | 67 | 67 | -7
COc1ncccc1C(=O)N1CCCC(C(=O)c2cccc(OC(C)C)c2)C1 (centres undefined) | x | i | 1 | x | x | 100 | -2
CC(C)n1cc(CN2CCCC(CO)(Cc3cccc(Cl)c3)C2)cn1 (centres undefined) | x | i | 0.94 | x | x | 103 | -7
O=C(CSCc1c(Cl)cccc1Cl)Nc1ccccc1C(=O)N1CCOCC1 | -2.2 | i | 0.77 | 20 | 128 | 94 | 2
COc1ccccc1NC(=O)N1CCn2c(nc3ccccc32)C1 | -1.8 | i | 1.1 | x | x | 81 | -9
Cc1ccc(NC(=S)NCc2ccc3c(c2)OCO3)cc1 | -0.5 | x | x | x | x | 97 | 14
CCOc1ccc2nc3sc(C(=O)N4CCOCC4)c(N)c3cc2c1 | x | i | 1.2 | -85 | 140 | 95 | -10

In another format: entries from further up.
COCCn1c(N)c(C(=O)OCc2ccccc2)c2nc3ccccc3nc21
  GALR2 agonist: 3.0
  HSV augment: i
  HSV augment primary fold: 0.78
  Insulin prom inh: 36
  Insulin prom inh cell count: 128
  RGS16-Gao HTS: 99
  PKD1 kinase inh: -1
Oc1oc(-c2ccccc2)nc1/C=N/c1ccccn1
  GALR2 agonist: x
  HSV augment: i
  HSV augment primary fold: 0.87
  Insulin prom inh: 38
  Insulin prom inh cell count: 150
  RGS16-Gao HTS: 108
  PKD1 kinase inh: -2
COc1ccc(NC(=O)CC(c2ccc(F)cc2)c2ccc(OC(C)C)cc2)cc1 (centres undefined)
  GALR2 agonist: -1.0
  HSV augment: i
  HSV augment primary fold: 0.91
  Insulin prom inh: -11
  Insulin prom inh cell count: 144
  RGS16-Gao HTS: 102
  PKD1 kinase inh: -3
CCOc1ccc2nc3sc(C(=O)N4CCOCC4)c(N)c3cc2c1
  GALR2 agonist: x
  HSV augment: i
  HSV augment primary fold: 1.2
  Insulin prom inh: -85
  Insulin prom inh cell count: 140
  RGS16-Gao HTS: 95
  PKD1 kinase inh: -10

Carrying on:
SMILES | GALR2 agonist | HSV augment | HSV augment primary fold | Insulin prom inh | Insulin prom inh cell count | RGS16-Gao HTS | PKD1 kinase inh
C=CCc1ccc(OCCOCCOc2cccc3cccnc23)c(OC)c1 | 0.9 | i | 0.98 | 16 | 75 | 101 | 5
O=C(N/N=C/c1ccco1)C(O)c1ccccc1 (centres undefined) | x | i | 1.2 | x | x | 99 | x
COC(=O)C1C(=O)c2c(C)noc2CC1(C)C (centres undefined) | x | i | 0.86 | 21 | 109 | 103 | 1
O=C(NC(=S)Nc1ccc(CN2CCOCC2)cc1)c1ccc(-c2ccc(Br)cc2)o1 | x | i | 1 | x | x | 100 | x
COc1cccc(NC(=S)Nc2cc(C(=O)O)ccc2N2CC3CC(C2)c2cccc(=O)n2C3)c1 (centres undefined) | x | i | 0.98 | -86 | 130 | 102 | 3
COC(=O)CNC(=O)CSc1nc(N)cc(=O)[nH]1 | -2.8 | i | 0.89 | -53 | 119 | 107 | -2
CC(=O)NCCC(=O)N1CCCC(CNC(=O)c2ccc(-c3ccccc3)cc2)C1 (centres undefined) | x | i | 0.97 | x | x | 94 | 2
Cc1ccsc1/C=c1\sc2ncnn2c1=O | -2.3 | i | 0.8 | x | x | 102 | -9
CCOC(=O)CCCNC(=O)COC(=O)c1cc(C)cc(C)c1 | -3.2 | i | 0.89 | 7 | 89 | 107 | -6
C=CCSc1nccc(-c2nn(-c3ccc(C)cc3)ccc2=O)n1 | 0.5 | i | 0.59 | 14 | 50 | 95 | -2
CC(C)(C)n1nnnc1C(c1ccncc1)N(Cc1ccccc1)Cc1ccco1 (centres undefined) | -1.8 | i | 1 | -54 | 120 | 101 | 3
CCCCNC1=C(Br)C(=O)CC(C)(C)C1 | 0.3 | i | 1.1 | -24 | 132 | 90 | 0
Cc1ccc(S(N)(=O)=O)c(C)c1-n1cnnn1 | x | i | 0.9 | x | x | 105 | 0
CCCC(=O)NCCc1nc2cc([N+](=O)[O-])ccc2n1C | 0.2 | i | 0.95 | -10 | 45 | 108 | -8
COc1ccccc1-n1cc(CN2CCCC(CO)(Cc3cccc(Cl)c3)C2)cn1 (centres undefined) | x | i | 0.77 | x | x | 98 | -6
NC1=NC(=O)C(Cc2cc(Cl)ccc2Cl)S1 (centres undefined) | -2.1 | i | 1 | x | x | 102 | -5
CCOC(=O)c1c(NC(C)=O)no[n+]1[O-] | -1.3 | i | 0.88 | 30 | 100 | 76 | -1
NC(=O)C1CC(=O)N(c2ccc(OCc3c(Cl)cccc3Cl)cc2)C1 (centres undefined) | x | i | 0.94 | 0 | 81 | 110 | 5
COc1ccc(OCC(Cn2cnc3ccccc32)OC(C)=O)cc1 (centres undefined) | x | i | 1.1 | 27 | 116 | 65 | 0
Cc1cc(C)nc(SCC(=O)Nc2ccnc3ccccc23)n1 | x | i | 1.1 | -25 | 75 | 104 | 1

An excerpt from above in order of the PKD1 kinase inh value, ascending:
SMILES | GALR2 agonist | HSV augment | HSV augment primary fold | RGS16-Gao HTS | PKD1 kinase inh
CC(=O)N1CCc2cc(S(=O)(=O)CCC(=O)NCc3cccs3)ccc21 | -3.5 | x | x | 112 | -19
Cn1c(=O)c2c(nc(OCc3ccc4c(c3)OCO4)n2Cc2ccccc2Cl)n(C)c1=O | -1.3 | i | 0.92 | 99 | -9
Cc1ccccc1C(OCCN(C(C)C)C(C)C)c1ccccc1 (centres undefined) | -1.6 | i | 0.8 | 104 | -8
C=CCSc1nccc(-c2nn(-c3ccc(C)cc3)ccc2=O)n1 | 0.5 | i | 0.59 | 95 | -2

The listing continues:
SMILES | GALR2 agonist | HSV augment | HSV augment primary fold | Insulin prom inh | Insulin prom inh cell count | RGS16-Gao HTS | PKD1 kinase inh
CCC(=O)N1CCN(c2nc(C)nc3sc(C)c(C)c23)CC1 | -1.5 | x | x | x | x | 99 | -1
O=C1CCc2cc(S(=O)(=O)N3CCC(C(=O)Nc4nccs4)CC3)ccc2N1 | -0.6 | i | 0.87 | x | x | 101 | 0
Cc1ccccc1-c1noc(-c2ccc(O)cc2)n1 | -2.6 | i | 0.99 | x | x | 103 | 14
COc1ccccc1C(=O)NCCN1CCN(C(=O)c2ccccc2OC)CC1 | -0.1 | i | 0.96 | 27 | 138 | 100 | -13
CC(C)/C=N/NC(=O)c1cc(Br)ccc1O | -0.7 | i | 1 | 53 | 71 | 71 | -2

Compound activity as filed in PubChem.
